# D2 ag: human D2 receptor agonism in beta-arrestin assay | P14416 | DiscoveRx PathHunter D2 beta-arrestin, luminescence, 90 min; 100% = 57 uM dopamine signal | activation, % (no concentration beside the values) | 360,000 compounds, 0.084% hits | AID 624465; in the data active = activation above about 40%; inconclusive = about 15% to 40%; inactive = below about 15%; further: compound concentration not given in the record; the text of the record calls up to 30% inactive
# Target sequence (P14416 whole entry, looked up): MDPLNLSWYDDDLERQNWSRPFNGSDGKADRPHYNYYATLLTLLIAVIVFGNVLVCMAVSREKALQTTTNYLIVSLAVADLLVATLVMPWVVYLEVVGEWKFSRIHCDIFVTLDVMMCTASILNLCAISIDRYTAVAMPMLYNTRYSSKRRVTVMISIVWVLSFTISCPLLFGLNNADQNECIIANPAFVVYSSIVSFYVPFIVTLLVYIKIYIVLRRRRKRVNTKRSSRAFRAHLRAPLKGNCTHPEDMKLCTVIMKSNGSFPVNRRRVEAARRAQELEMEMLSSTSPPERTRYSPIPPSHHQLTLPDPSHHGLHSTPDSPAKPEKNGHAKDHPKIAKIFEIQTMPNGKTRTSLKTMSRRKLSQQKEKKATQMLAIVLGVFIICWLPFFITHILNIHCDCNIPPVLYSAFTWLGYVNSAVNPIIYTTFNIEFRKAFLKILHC
#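 DiscoveRx PathHunter D2 beta-arrestin cells (2,100/well) attached overnight, then compound-stimulated 90 min at 37 C in HBSS/10 mM HEPES/0.1% Tween-20 buffer; beta-galactosidase complementation read by luminescence after 1 h at ambient temperature. Dopamine 57 uM final (EC100) as control.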
# Menin-MLL FL inh: menin-MLL binding inhibition, fluorescein peptide | AID 1766 | FP activity change, % at 61.4 µM | 290,000 tested, under 10 active | Fluorescence polarization, fluorescein-MLL peptide displacement from menin; inconclusive = falling polarisation curve, or a change in total fluorescence; inactive = total fluorescence flat and polarisation flat or rising; no compound was filed as active; the % refers to the polarisation; negative = inhibition;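 further: % of control where 0% means no effect; inhibitors lower the polarisation; unlabelled MLL peptide was the positive control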
# PINK1 expr mod: PINK1 expression modulation. 410,000 compounds, 0.2% hits. AID 624263. PINK1 immunofluorescence, high-content cytometry, 24 h. Potency, µM (highest dose often 76.6 µM), without a hit: at the top dose activation (PINK1 increase), actives largely listed as activators; active = well fitted activation curve with a large enough effect; inconclusive = small, poorly fitted or top-dose-only effect; inactive = flat fitted curve, though single readings scatter; cell line not stated here;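 further: potency means the concentration at half of the fitted maximal effect; % of control where 0% means no effect; nearly all actives have a fitted effect of over 65% in size; a mitochondrial uncoupler was the plate control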
#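 Stable cell line, 250 cells/well, 12 h attachment; compounds pinned at 5 concentrations, 24 h; CCCP control. Fixed with nuclear dye, primary antibodies 12 h at 10 degrees C, secondary plus cell stain; laser-scanning cytometer read.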
# Sfp inh: inhibitors of Bacillus subtilis Sfp phosphopantetheinyl transferase | Q9F4F7 | 310,000 compounds, 3.5% hits | Biochemical Sfp PPTase activity, qHTS | Potency, µM, without a hit: max response, negative = inhibition, hits mostly inhibitors; active means well fitted inhibition curve with a large enough effect; inconclusive means small, poorly fitted or top-dose-only effect, or another doubt; inactive means no such curve, though single readings can be large or run the other way;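 further: the enzyme is Sfp with the accession as filed and its product quenches rhodamine fluorescence; potency means the concentration at half of the fitted maximal effect; 0% = enzyme reaction without inhibitor and -100% = no enzyme wells; top concentration of the series not given in the record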
#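 Fluorescence-quenching assay with 15 nM Sfp, 5 uM rhodamine-CoA and 12.5 uM BHQ-2-labelled ybbR peptide in pH 7.6 Hepes/MgCl2 buffer. Enzyme was pre-incubated with compound for 15 min at room temperature. Rate was taken from the 30-min fluorescence change (525/598 nm).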
# gsp agonist: activates gsp, the McCune-Albright syndrome mutation; Potency, µM (top dose mostly 76.9 µM), inactives show at the highest dose activation (cAMP increase), usual class: activators; gsp mutant cells, cAMP HTRF, 30 min; control for the full effect not named in the record; 340,000 compounds, 0.13% hits; AID 624287; active = well fitted activation curve with a large enough effect; inconclusive = small, poorly fitted or top-dose-only effect, or another doubt; inactive = no such curve, though single readings can be large or run the other way; cell line not stated here;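 further: phosphodiesterase inhibitor Ro 20-1724 added with compounds to block cAMP breakdown; potency means the concentration at half of the fitted maximal effect; nearly all actives have a fitted effect of over 60% in size; about a fifth of the inactives were tested at one dose only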
#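 Cells stably selected in G418 were plated at 2000/well, grown 16-24 hr, then given compounds in DMSO with the PDE inhibitor […] (300 uM solution added) for 30 min at 37C; cAMP was read by HTRF.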
# ClpP mod: qHTS Assay for Activators of ClpP | ATP-dependent Clp protease proteolytic subunit (Bacillus subtilis (strain 168)), P80244 | purified B. subtilis ClpP, FRET peptide cleavage, 20 min | Potency, µM (series often up to 57.5 µM), for the others: top-dose activity change, negative = active | 340,000 compounds, 1.9% hits | AID 651965, 2013; active = well fitted falling curve with a large enough effect; inconclusive = small, poorly fitted or top-dose-only effect; inactive = no such curve, though single readings can be large or run the other way; further: potency means the concentration at half of the fitted maximal effect; the source files actives as falling curves though it sought activators and does not explain the sign; nearly all actives have a fitted effect of over 65% in size; many hits overshoot -100%
# Target sequence (P80244 whole entry, looked up): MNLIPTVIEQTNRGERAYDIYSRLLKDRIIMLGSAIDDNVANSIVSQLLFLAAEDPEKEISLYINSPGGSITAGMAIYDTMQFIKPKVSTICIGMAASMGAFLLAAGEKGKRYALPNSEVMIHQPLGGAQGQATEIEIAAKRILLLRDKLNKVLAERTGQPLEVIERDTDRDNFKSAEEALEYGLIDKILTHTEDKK
#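 Purified B. subtilis ClpP, 10 microg/mL final in Tris/HCl pH8 with KCl, BSA, glycerol and Tween-20, cleaved an Abz/nitrotyrosine-quenched decapeptide. Fluorescence (ex 320, em 430) was read at 0 and 20 min at room temperature. Delta was normalized to 5.8 microM ADEP and DMSO/no-enzyme controls.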
# gsp antagonist: antagonists of gsp mutant (McCune-Albright syndrome); AID 624288; gsp-mutant cells, cAMP HTRF, 30 min; control for the full effect not named in the record; Potency, µM (titrated, usually from 76.9 µM), inactives show top-dose activity change, negative = inhibition, usual class: inhibitors; 340,000 compounds, 0.4% hits; active = falling curve of any shape with a large fitted effect; inconclusive = falling curve, mostly with a smaller effect; inactive = flat or rising curve; cell line not stated here;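 further: intracellular cAMP measured with PDE inhibitor Ro 20-1724 present during compound exposure; potency means the concentration at half of the fitted maximal effect; on the % scale 0 is the no-effect control and ±100 the full control effect; nearly all actives have a fitted effect of over 65% in size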
#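 Cells in G418 medium, seeded 16-24 h, 37C; buffer exchange to DPBS + 1 mM CaCl2, 0.5 mM MgCl2, 0.05% BSA; cpds in DMSO + […] (300 uM stock), 30 min 37C; HTRF cAMP detection.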
# * = called active by the depositor; ? = inconclusive; · = no result given; & = joins results of further samples; ! = not confirmed by another sample; [ ] = another dose, or the depositor's remark.
SMILES,D2 ag,Menin-MLL FL inh,PINK1 expr mod,Sfp inh,gsp agonist,ClpP mod,gsp antagonist
O=C(c1nc[nH]c1C(=O)N1CCN(c2ccccc2)CC1)N1CCN(c2ccccc2)CC1,-0.9,·,-0.1%,·,·,-3.0%,8%
NC(Cc1ccc(C(F)(F)F)cc1)c1csc(Nc2ccc(S(N)(=O)=O)cc2)n1 (centres undefined),9.2,·,4.1%,·,·,-10%,·
COc1cccc(OC)c1C(=O)Nc1nc2cc3c(cc2s1)OCO3,-0.4,4.3,13%,0%,-1%,·,10%
CC(=O)c1ccc(OCC(O)CN2CCN(Cc3ccc4c(c3)OCO4)CC2)cc1 (centres undefined),-2.2&-4.8,3.3&2.0,1.5%&1.0%,89µM*!,-34%&-7%[inhibitor],0.1%&-0.1%,0%&0%
O=S(=O)(c1ccc(-c2csc(Nc3ccc(F)cc3)n2)cc1)N1CCCC1,6.4,3.8,6.7%,-43%,-16%,20µM*,-15%
COc1ccc(CS(=O)(=O)CC2(O)CCN(C(=O)c3cccc(C(F)(F)F)c3)CC2)cc1,0.8,-1.5,4.1%,10%,-9%[15.4 µM],0.1%,-19%
Cc1cc(C)c(NC(=O)C(C)c2cccc(C(=O)c3ccccc3)c2)c(C)c1 (centres undefined),2.6,-1.6,-5.3%[38.3 µM],17%,0%,-3.3%,-24%
Cn1c2ccccc2c(=O)c2c(=O)n(C3CCCCC3)c(-c3ccco3)nc21,-7.9,2.7,-0.7%,8%,12%,-3.1%,-3%
Cn1cccc1Cc1nnc(SCC(=O)Nc2cccc(Cl)c2)n1-c1ccc(F)cc1,-3.2,2.3,0.8%,-7%,3%,21%,-14%
COc1ccccc1NC(=O)Cn1cc(C(=O)C2CC2)c2ccccc21,-2.8,-7.0,6.7%,0%,2%,-2.3%,-3%
COc1cc(C2C3C(=O)N(Cc4ccccc4)C(=O)C3ON2c2ccccc2)cc(OC)c1OC (centres undefined),-3.8,2.7,5.1%,6%,-9%,3.0%,-7%[15.4 µM]
Cc1cc(C)n(C2CCCCC2OC(=O)c2ccccc2F)n1 (centres undefined),-5.1,1.7,-1.8%,-1%,-18%,2.4%,11%
CC(C)c1ccc(C(=O)NC(=S)Nc2ccc3[nH]c(=O)[nH]c3c2)cc1,-2.1,1.4,1.4%,-10%,30%,·,-7%
COCCN(Cc1cc2cc(C)ccc2n2nnnc12)C(=S)Nc1ccc(OC)cc1,-2.4,·,3.2%,·,?,1.5%,-30%
CCN(CC)S(=O)(=O)c1ccc(C(=O)Nn2cnnc2)cc1,-0.1,4.9,-0.6%,16%,?,1.3%,7%
Cc1ccc(N(CC(=O)NCc2ccccc2Cl)S(=O)(=O)c2cccs2)cc1,2.2,5.5,-4.2%[38.3 µM],4%,-8%,-0.3%,-3%
COc1ccc(C)cc1NC(=O)c1ccc(NS(=O)(=O)c2cccc3cccnc23)cc1,-1.3,0.7,1.9%,8%,21%[15.4 µM],·,?
Cc1ccc(C(=O)NCc2ccco2)o1,-2.8,1.8,-1.0%,13%,3%[15.4 µM],-3.0%,3%
COc1ccc2nc(C)cc(NCCN3CCOCC3)c2c1,-4.7,-1.1,4.3%,10%,12%[15.4 µM],·,1%
CCc1c(O)nc(SCc2nc3ccccc3c(=O)[nH]2)[nH]c1=O,0.4,1.9,0.3%,-18%,25%[15.4 µM],·,1%
CCNC(=S)NCc1ccc(Cl)cc1,-4.4,·,-1.5%,·,-42%[inhibitor],-1.6%,14%
O=S(=O)([N-]c1nc2ccccc2nc1-[n+]1ccccc1)c1ccccc1,-0.9,-2.5,?,9%,6%[15.4 µM],2.1%,7%
COc1ccccc1N1CCN(C(c2ccc(Cl)cc2)c2nnnn2C(C)(C)C)CC1 (centres undefined),14,-5.6,4.1%,4%,25%,-10%,-26%
Oc1ccc(C=NCC2COc3ccccc3O2)cc1 (centres undefined),1.7,3.6,-0.7%[38.3 µM],13%,13%,-0.9%,4%
COc1cccc(C(=O)NCCOc2cc(C)cc(C)c2)c1,-2.3,-2.1,1.9%,-11%,-4%,1.1%,-16%
CCC(C)C(N=C1NS(=O)(=O)c2ccccc21)C(=O)N1CCC(C)CC1 (centres undefined),-5.1,·,2.7%,·,0%[15.4 µM],·,-2%
CC(=O)C1=C(O)C(=O)N(c2nccs2)C1c1ccccc1F (centres undefined),-2.5,1.1,0.8%,-23%,7%[15.4 µM],1.9%,-13%
CC(=S)c1c(C)cc2cc(C)ccn12,-0.8,-2.2,8.9%,?,-14%[15.4 µM],·,1%
O=C(OCCN1CCCCC1)c1ccccc1F,1.2,-2.1,2.6%,-2%,8%[15.4 µM],-1.5%,-9%
O=C(C1CCCN(S(=O)(=O)c2ccc(Cl)cc2)C1)N1CCCC1 (centres undefined),-4.4,-3.8,-1.1%,13%,-1%[15.4 µM],·,3%
O=C(CSc1ccc(-c2ccco2)nn1)N1CCCC1,0.9,-3.9,1.3%,50µM*,?,·,6%
COc1cccc(NC(=O)CN(C)C(=O)c2oc3c(ccc4ccccc43)c2C)c1,-3.6,·,2.5%,·,11%[15.4 µM],·,-16%
Cc1nnc(C)n1/N=C/c1cccnc1,-3.4,3.8,0.6%,20%,-26%,0.5%,-6%
COCCNC(=O)CN1N=C(c2ccc(OC)cc2)CCC1=O,-2.4,-3.4,1.9%,8%,-14%,·,-19%
COC(=O)c1c(C)oc(C)c1S(=O)(=O)N1CCCCC1,-2.5,1.4,-2.3%,16%,-2%[15.4 µM],18µM*,3%
O=C(CSc1nnc(CN2CCOCC2)n1-c1ccccc1)Nc1ccc(Cl)cc1,-1.1,5.1,-0.6%,5%,-3%,-1.8%,-13%
Cc1cccc(/C=N/NC(=O)C[n+]2ccccc2)c1,-3.6,·,-0.5%,·,3%[15.4 µM],-1.4%,6%
C=CCn1c(=O)c2c(nc3n2CCCN3CCc2ccccc2)n(C)c1=O,-4.8,-0.5,-0.2%,9%,21%,0.0%,-29%
Cc1nnc(-c2cccc(Br)c2)c2cn(-c3ccccc3Cl)nc12,2.7,-0.4,0.6%[38.3 µM],56µM*,28%,0.6%,-10%
Cc1cccc2cc(CN(Cc3cccs3)C(c3nnnn3C3CCCC3)C(C)C)c(=O)[nH]c12 (centres undefined),-1.7,-4.4,-0.7%,?,-6%,-0.6%,14%
CC(O)CCc1nc2ccc(C(=O)O)cc2[nH]1 (centres undefined),-6.5,3.5,-1.5%,20%,-8%[15.4 µM],-2.5%,11%
COc1ccc(-n2c(=O)c(CCc3ccccc3)nc3cnc(N4CCOCC4)nc32)cc1,·,-0.4,2.8%,16%,·,·,·
Cc1ccc(S(=O)(=O)N2CCCC(C(=O)O)C2)s1 (centres undefined),-5.5,1.2,3.9%,-2%,-23%,-1.7%,3%
CN(C)c1ccc(-c2ccc3oc(-c4ccsc4)cc(=O)c3c2)cn1,6.0,·,8.6%,·,3%,-28%,-3%
CNN/C(N=Cc1ccc([N+](=O)[O-])s1)=N\S(=O)(=O)c1cc(C)c(Cl)cc1SCc1ccccc1,0.8,·,-0.9%,·,-10%,-2.5%,7%
CCN1CCc2c(OCC(=O)N3CCCCC3)cccc2C1=O,-1.1,-0.1,-0.2%,18%,7%[15.4 µM],·,12%
CCCCn1c(N)c(N(CC)C(=O)c2c(CC)noc2C)c(=O)[nH]c1=O,-1.0,·,-0.5%,·,1%[15.4 µM],·,0%
Cc1ccsc1C(=O)Nc1ccc(OCc2ccccc2)cc1,-0.7,-3.3,9.6%,20%,-16%,-6.4%,4%
COc1ccc(-c2csc(C(C)(NC(C)=O)c3ccccc3)n2)cn1 (centres undefined),-5.2,·,2.5%,·,·,-2.9%,·
COC(=O)c1c(NC(=O)c2ccco2)sc(C)c1C,-5.9,-0.4,0.4%,-9%,12%,51%,-8%
Cn1c(=O)c(=O)n(C)c2cc(S(=O)(=O)CCC(=O)N3CCCCC3)ccc21,-2.2,1.0,0.0%,-5%,12%,-27%,10%
O=c1c2ccccc2sn1-c1ccc(F)cc1,-5.5,·,2.0%,·,·,-5.1%,-36%
O=C1Nc2ccccc2Oc2cc([N+](=O)[O-])ccc21,12,13,1.2%,10%,-14%,·,1%
CCOC(=O)CSc1ncc(OC)c(Sc2ccc(Cl)cc2)n1,-2.6,0.5,3.1%[38.3 µM],-6%,12%,-3.2%,-24%
COc1cccc(CNC(=O)CCl)c1,-5.7,-1.2,1.0%,13%,11%[15.4 µM],-3.4%,-5%
Cc1ccccc1OCC(=O)N1N=C(C(F)(F)F)CC1(O)C(C)(C)C (centres undefined),-5.5,-1.4,-0.2%,?,-18%,-0.9%,-18%
Cc1ccc(S(=O)(=O)NNc2ccccc2)cc1,2.1,4.7,8.1%[38.3 µM],32µM*,?,-0.7%,-1%
CC(C)NC(=O)Nc1cccc2c1O[C@@H](CN(C)S(=O)(=O)c1ccc(F)cc1)[C@@H](C)CN([C@H](C)CO)C2=O,-2.2,·,-0.1%,·,5%,-18%,-6%
COc1ccc([C@H]2N[C@]3(CCCN(Cc4ccccc4)C3=O)[C@H]3C(=O)N(Cc4ccccc4)C(=O)[C@@H]23)cc1,-8.7,·,1.8%,·,-22%,-1.3%,·
CCc1nc2ccc(C(=O)N3CCCC(C(N)=O)C3)cn2c1N(C=O)CC (centres undefined),-1.0,·,1.3%,·,·,-4.2%,·

# Assay outcomes deposited in PubChem by National Center for Advancing Translational Sciences (NCATS).
